Screening results: PubChem BioAssay, Johns Hopkins Ion Channel Center
KCNQ2 enhance: potentiators of rat KCNQ2 potassium channel | CHO-K1 KCNQ2, FluxOR thallium flux fluorescence; stronger effect = higher value | B-score at 10 µM | 310,000 tested, 0.54% active;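 active = fluorescence ratio B-score at least 3 SD of library B-scores, with initial fluorescence B-score within 3 SD, cut at about 5.3 in these data; same plate scores as AID 2156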;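 also: B-score of peak minus minimum over baseline fluorescence ratio after K+ and Tl+ stimulus; positive B-score means potentiation of KCNQ2 with more thallium influx and brighter signal; only the inactives scoring about 0 or higher are listed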
Target sequence (O88943 whole entry, looked up): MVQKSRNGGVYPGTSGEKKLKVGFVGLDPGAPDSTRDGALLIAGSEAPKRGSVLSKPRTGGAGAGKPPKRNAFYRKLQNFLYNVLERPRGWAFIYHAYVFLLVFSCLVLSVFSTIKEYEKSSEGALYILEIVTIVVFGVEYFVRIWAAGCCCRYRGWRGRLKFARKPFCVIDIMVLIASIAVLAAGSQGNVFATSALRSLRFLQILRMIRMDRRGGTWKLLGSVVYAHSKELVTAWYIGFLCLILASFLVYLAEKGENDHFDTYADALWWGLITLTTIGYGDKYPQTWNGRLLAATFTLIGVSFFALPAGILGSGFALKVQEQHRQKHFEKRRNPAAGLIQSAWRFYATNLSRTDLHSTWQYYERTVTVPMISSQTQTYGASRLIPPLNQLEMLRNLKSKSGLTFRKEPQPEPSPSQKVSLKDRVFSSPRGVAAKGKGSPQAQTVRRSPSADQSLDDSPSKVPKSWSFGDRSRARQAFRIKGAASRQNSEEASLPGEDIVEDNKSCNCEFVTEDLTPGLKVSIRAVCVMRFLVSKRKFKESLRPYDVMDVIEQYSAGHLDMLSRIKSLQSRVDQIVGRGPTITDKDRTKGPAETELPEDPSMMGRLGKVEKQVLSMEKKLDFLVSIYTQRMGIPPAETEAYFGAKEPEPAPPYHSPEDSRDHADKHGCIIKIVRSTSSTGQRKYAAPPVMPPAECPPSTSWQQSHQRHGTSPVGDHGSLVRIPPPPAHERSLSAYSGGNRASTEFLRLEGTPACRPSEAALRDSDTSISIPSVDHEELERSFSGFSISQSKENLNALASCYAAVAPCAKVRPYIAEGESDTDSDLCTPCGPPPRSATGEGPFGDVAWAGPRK
KCNQ2 enhance baseline: second read-out of KCNQ2 enhance, no call of its own (marks repeat the call); B-score; compound at 10 µM; measured here: initial fluorescence intensity artifact check;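 brightness before thallium and not channel activity; 0 = typical well and far values either way flag optical interference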
Numbers without * were called inactive. An excerpt, so the mix of outcomes need not match the whole.

KCNQ2 enhance | KCNQ2 enhance baseline | SMILES
1.9 | -4.2 | CCN(CC)C(=O)C(C)OC(=O)COc1ccc(Cl)cc1Cl (stereo not given)
0.38 | 0 | O=C(NCCOC(=O)c1ccc(C(=O)OCCNC(=O)c2cccnc2)s1)c1cccnc1
0.7 | 0.23 | CC(C)(C)NS(=O)(=O)c1ccc(CCC(=O)O)cc1
0.59 | -1.4 | CN(C)C(=O)c1cn(-c2ccccc2)nc1-c1cc2ccccc2oc1=O
0.2 | 0.07 | CC1CCCCC1NC(=S)NC(=O)c1sc2ccccc2c1Cl (stereo not given)
0.09 | -0.21 | Cn1[nH]c(CSc2ccc(Cl)cc2)cc1=O
0.12 | -1.1 | CCOC(=O)C1CCN(C(=O)c2cc(S(=O)(=O)N3CCc4ccccc43)ccc2OC)CC1
0.17 | -0.62 | CN(C)c1nc(N2CCOCC2)nc(N(c2ccccc2)c2ccccc2)n1
0.45 | 0.13 | C/C(=N\NC(=O)C(O)c1ccccc1)c1ccc(C)s1 (stereo not given)
0.33 | 0.2 | Cc1c(-c2ccn[nH]2)cc(NC(=O)c2ccc(Cl)cc2)c(=O)n1N
0.01 | -0.3 | Cc1c(Cl)cccc1-n1c(SCC(=O)NCc2cccs2)nnc1-c1ccncc1
1.1 | -0.83 | Cc1oc(C(=O)O)cc1CSCc1cc(C(=O)O)c(C)o1
0.24 | 0.05 | COc1ccc(NC(=O)CSCC(=O)Nc2sccc2C#N)cc1
0.45 | -1.1 | O=C1C2C3C=CC(C4CC34)C2C(=O)N1c1cccc2ccccc12 (stereo not given)
0.26 | 0.18 | Cc1ccc(C(=O)Nc2nc3ccc(S(C)(=O)=O)cc3s2)cc1C
1.1 | -0.68 | COC(=O)CC1=NN(c2ccccc2)C(=O)/C1=C\c1ccc(OC)cc1
0.58 | 1.8 | Cc1ccccc1NC(=S)NCC1CCN(C(C)c2ccccc2)C1 (stereo not given)
0.8 | -0.19 | O=c1c2ccccc2nc(-c2ccco2)n1/N=C/c1ccccc1O
0.13 | 2.6 | O=C(NNC(=O)C1CCN(S(=O)(=O)c2ccc(Cl)cc2)CC1)c1ccncc1
1.3 | 0.54 | O=C(NC1CC(=O)N(c2cccc(F)c2)C1)C(=O)c1c[nH]c2ccccc12 (stereo not given)
0.93 | -1.2 | Nc1ccccc1C(=O)NC12CC3CC(CC(C3)C1)C2
0.3 | -0.09 | CCN(CC(=O)Nc1ccc2c(c1)OCCO2)C(=O)/C=C/c1ccc(OC)c(OC)c1
1.3 | 0.36 | O=C(NC1CCN(Cc2ccccc2)CC1)c1ccc2c(c1)OCCCO2
0.26 | 1.9 | CCOC(=O)c1ccccc1NC(=O)CSc1nc(N)cc(N)n1
0.05 | -1.4 | O=C1CCCc2[nH]c(-c3ccccc3)nc21
0.6 | 0.38 | COc1ccc(CN2CCNC(=O)C2CC(=O)O)cc1OC (stereo not given)
1.3 | 0.34 | COc1cccc(NC(=O)C(=O)N/N=C/c2ccc3c(c2)OCO3)c1
0.77 | -0.02 | CC(NC(=O)/C(=C/c1ccc2c(c1)OCO2)NC(=O)c1cccc([N+](=O)[O-])c1)C(=O)O (stereo not given)
2.2 | 2.8 | O=C(NCc1ccccc1)c1c(Cl)nc(Cl)c(Cl)c1Cl
0.73 | 0.43 | C/C(=N\NC(=O)c1nnn(-c2nonc2N)c1CN(C)c1ccccc1)c1ccc(O)cc1
1.3 | 1.1 | CCOc1ccc(NC(=O)Cc2ccccc2)cc1
0.97 | 1.7 | O=C(NCCCN1CCOCC1)c1ccc(-n2nc(C(F)(F)F)cc2-c2cccs2)cc1
0.73 | 0.88 | CCCNC(=O)CN1CCN(c2cc3ccccc3c(Cl)n2)CC1
0.07 | 1.3 | CCCCCN(C(=O)CCC(=O)OCCOc1cccc(Cl)c1)c1c(N)n(CCCC)c(=O)[nH]c1=O
0.23 | 0.25 | CC(NC(=O)c1ccco1)C(c1cccs1)N1CCN(c2ccccc2F)CC1 (stereo not given)
0.54 | -0.01 | COCCN1C(=O)C(=O)/C(=C(/O)c2ccc(S(=O)(=O)N3CCCCC3)cc2)C1c1ccc(O)c(OC)c1 (stereo not given)
0.32 | 0.01 | CC(=O)NCC(=O)N(C)C(C(=O)Nc1ccc2c(c1)OCCO2)c1ccc(C)cc1 (stereo not given)
1.7 | -1.1 | CC(C)(C)C1CCc2c(sc3c2C(=O)NC(c2ccco2)N3)C1 (stereo not given)
0.18 | 0.48 | Cc1cnc(NC(=O)c2sc(Nc3ccccc3)nc2N)o1
0.37 | 0.51 | COc1ccc(S(=O)(=O)N2Cc3ccccc3CC2C(=O)O)cc1 (stereo not given)
0.65 | -1.5 | Cc1noc(C)c1CSCC(=O)OCC(=O)NC1CCCCC1
0.93 | 1 | CCO[C@@H]1OC(C(=O)NCc2nc3ccccc3[nH]2)=C[C@H](C)[C@H]1CCCO
0.87 | -0.76 | CC(=O)N1N=C(c2cccs2)CC1c1cccc([N+](=O)[O-])c1 (stereo not given)
1.9 | -0.75 | O=C(N/N=C1\CCCc2ccccc21)c1ccccc1[N+](=O)[O-]
0.67 | -0.28 | CCC1CCC/C1=N\NC(=O)c1ccccc1Cl (stereo not given)
0.1 | 1.5 | O=C(O)C1CCCCC1C(=O)Nc1ccc(S(=O)(=O)N2CCCCCC2)cc1 (stereo not given)
1.5 | 0.03 | CC1CCCC(NC(=O)COC(=O)/C=C/c2ccc3c(c2)OCO3)C1C (stereo not given)
0.37 | 1.1 | O=C(NCc1ccccc1Cl)C1CCC(=O)N(CC2CCCCC2)C1 (stereo not given)
0.42 | -1.2 | CCn1cnc2sc(C(=O)Oc3ccc(Br)cc3)c(C)c2c1=O
0.04 | -0.58 | CCn1c(SCC(=O)c2ccc(C)cc2)nnc1-c1ccoc1C
1.8 | -0.6 | O=C1CC(c2ccccc2)CC(O)=C1C=Nc1ccccc1O (stereo not given)
1.3 | -0.68 | O=C(CSc1nc2[nH]ncc2c(=O)[nH]1)NCCc1ccccc1
0.21 | -0.39 | Cc1ccc(C(=O)Nc2nnc(COc3ccccc3)s2)cc1
0.22 | -0.8 | O=C(Cn1c(=O)oc2ccccc21)NCCc1ccccc1
1.9 | -0.47 | COC(=O)c1cc(S(=O)(=O)Nc2ccc(C)cn2)c[nH]1
0.6 | 2.1 | Cc1ccc(C)c(N2C(=O)c3ccc(C(=O)OCC(=O)c4c(N)n(C)c(=O)n(C)c4=O)cc3C2=O)c1
0.5 | 0.25 | Cc1ccc(S(=O)(=O)N(C)CC(=O)Nc2ccncc2)cc1
1.7 | -0.63 | Cc1ccc(-n2c(=O)[nH]c3cc(C(=O)NC4CCN(Cc5ccccc5)CC4)ccc3c2=O)cc1
0.45 | 0.45 | COc1ccc(CCN2CC(C(=O)NCC(=O)Nc3ccc(F)c(F)c3)CC2=O)cc1OC (stereo not given)
0.88 | -0.09 | CC1=C(C#N)C(c2ccccc2)C2=C(N1)c1ccccc1C2=O (stereo not given)

The list continues.
KCNQ2 enhance | KCNQ2 enhance baseline | SMILES
0.32 | -0.01 | S=C(Nc1ccc(Cl)cc1Cl)N1CCCC1
0.37 | -0.65 | COc1ccc(NC(=O)c2cccc(N3C(=O)C4C5C=CC(C5)C4C3=O)c2)cc1Cl (stereo not given)
2.2 | -1.1 | COc1ccc(NC(=S)N(CCC(C)C)C2CCN(C(C)C)CC2)cc1
1.8 | 0.27 | CCC(C)NC(=O)CSc1nnc(-c2ccc(C(C)(C)C)cc2)n1C (stereo not given)
1.5 | -0.61 | Cn1c(=O)oc2cc(S(=O)(=O)NCCC(=O)N3CCc4ccccc43)ccc21
0.15 | -2 | COc1ccc(-c2nnc(CSc3nnc(-c4ccncc4)n3C3CCCCC3)o2)cc1OC
1.1 | -0.56 | CCc1ccccc1NC(=O)CSc1nc2[nH]c(=O)cc(O)c2s1
0.14 | -0.02 | Cc1ccc(C)c(NS(=O)(=O)c2csc(C(N)=O)c2)c1
0.09 | -0.11 | CCCOC(=O)CCNc1n[nH]c(=O)[nH]c1=O
0.04 | 0.88 | Cc1cc(NC(=O)CN2CCC(O)(c3cccc(F)c3)CC2)no1
0.22 | 0.04 | COc1ccc(-n2nc3ccccc3n2)cc1
0.27 | -0.92 | CCOc1ccc(S(=O)(=O)N2Cc3ccccc3CC2C(=O)O)cc1 (stereo not given)
1.2 | -0.84 | Cc1ccc(S(=O)(=O)/N=C(/c2ccc(F)cc2)N2CCOCC2)cc1
0.09 | -0.66 | C=CCOc1ccccc1CN1CCC(Cc2ccccc2)CC1
0.61 | -0.19 | CC1(C)Cc2nc(Cl)c(C(N)=O)cc2CO1
0.61 | -1 | O=C(CSc1nnnn1-c1ccc(C(=O)O)cc1)NC1CC1
0.45 | -1.5 | COc1ccc(CNC(=O)COC(=O)c2ccc(F)c(S(=O)(=O)N3CCCCC3)c2)cc1OC
0.79 | -0.01 | Nc1c2c(nn1-c1ccc(C(=O)O)cc1)CNC2
0.36 | -1.6 | CC1=C(C)CC(C(=O)Nc2nccs2)C(C(=O)O)C1 (stereo not given)
0.35 | -0.1 | CN(CC(=O)NCc1ccco1)S(=O)(=O)c1cccc2cccnc12
1 | 0.01 | O=S(=O)(c1ccccc1)c1nc(NC2CC2)sc1Cl
1.5 | -0.15 | Cn1c(=O)c2c(SCC(=O)N3CCOCC3)nc(-c3ccccc3F)nc2n(C)c1=O
0.39 | 1.4 | CC(OC(=O)c1snc(C(=O)NC2CCCCC2)c1N)C(=O)NC(C)(C)C (stereo not given)
2 | -0.23 | COc1ccc(/C=N/n2c(=O)[nH]c3c([nH]c4ccc(Cl)cc43)c2=O)cc1CN1CCCCC1
0.16 | -0.68 | CSc1ccc(Cl)c(C(=O)Nc2nccs2)c1
0.2 | -1.1 | CC1(C)C(=O)Nc2ccccc2N1C(=O)CN1C(=O)NC(CCc2ccccc2)C1=O (stereo not given)
0.49 | 0.8 | CC1CCCN(CCC(=O)Nc2ccc(Br)cc2)C1 (stereo not given)
1.5 | -2.5 | CCOC(=O)c1cccc(NC(=O)CNS(=O)(=O)c2cccs2)c1
1.2 | 0.8 | Cc1ccc2c(c1)N(CC(=O)NC1CCCC1)C(=O)C(C)O2 (stereo not given)
0.02 | -2 | COc1cc(OC)c(CNC2CCCCCC2)cc1Br
1.4 | 0.88 | Cc1cccc(NC(=O)CSc2nnc(-c3ccncc3)n2CC2CCCO2)c1 (stereo not given)
0.16 | 0.88 | O=C(COc1ccc(F)cc1)N/N=C/c1cccc2cccnc12
0.08 | -1.8 | Cc1cc(OCC(=O)NCCc2ccc(S(N)(=O)=O)cc2)c2c(C)c(C)c(=O)oc2c1
0.44 | 1.8 | O=C(CNC(=O)c1ccc(Cl)c([N+](=O)[O-])c1)NCC1CCCO1 (stereo not given)
1.6 | 0.02 | CCN(CC)C(=O)Cn1nc(C)c2ccccc2c1=O
1.3 | -0.81 | CCc1nnc(NS(=O)(=O)c2ccc(NC(=S)Nc3ccc(F)cc3)cc2)s1

An excerpt from above in order of number of heavy atoms, largest number first:
KCNQ2 enhance | KCNQ2 enhance baseline | SMILES
2 | -0.23 | COc1ccc(/C=N/n2c(=O)[nH]c3c([nH]c4ccc(Cl)cc43)c2=O)cc1CN1CCCCC1
0.2 | -1.1 | CC1(C)C(=O)Nc2ccccc2N1C(=O)CN1C(=O)NC(CCc2ccccc2)C1=O (stereo not given)
1.4 | 0.88 | Cc1cccc(NC(=O)CSc2nnc(-c3ccncc3)n2CC2CCCO2)c1 (stereo not given)
1.3 | -0.81 | CCc1nnc(NS(=O)(=O)c2ccc(NC(=S)Nc3ccc(F)cc3)cc2)s1
0.39 | 1.4 | CC(OC(=O)c1snc(C(=O)NC2CCCCC2)c1N)C(=O)NC(C)(C)C (stereo not given)
0.35 | -0.1 | CN(CC(=O)NCc1ccco1)S(=O)(=O)c1cccc2cccnc12
1.5 | -2.5 | CCOC(=O)c1cccc(NC(=O)CNS(=O)(=O)c2cccs2)c1
0.44 | 1.8 | O=C(CNC(=O)c1ccc(Cl)c([N+](=O)[O-])c1)NCC1CCCO1 (stereo not given)
1.2 | 0.8 | Cc1ccc2c(c1)N(CC(=O)NC1CCCC1)C(=O)C(C)O2 (stereo not given)
0.02 | -2 | COc1cc(OC)c(CNC2CCCCCC2)cc1Br
0.36 | -1.6 | CC1=C(C)CC(C(=O)Nc2nccs2)C(C(=O)O)C1 (stereo not given)
0.16 | -0.68 | CSc1ccc(Cl)c(C(=O)Nc2nccs2)c1

More structures.
KCNQ2 enhance | KCNQ2 enhance baseline | SMILES
0.61 | 2.8 | NS(=O)(=O)c1ccc(CCNS(=O)(=O)c2ccc3c(c2)NC(=O)CO3)cc1
0.39 | 0.91 | CSCC(=O)N1CCCC(CNC(=O)c2ccc(-c3ccccc3)cc2)C1 (stereo not given)
5.4* | 0.98* | COc1cccc(CC(=O)Nc2cc(C(F)(F)F)ccc2N2CCCC2)c1
0.94 | -0.57 | Cn1c(=O)cc(SCC(=O)NCCCN2CCN(c3ccccc3F)CC2)c2ccccc21
0.58 | -1.4 | Cc1cc2oc(C(=O)Nc3nonc3C)c(C)c2cc1Cl
0.17 | 8.2 | CC(C)N1CCN(Cc2cccc3nonc23)CC1CCO (stereo not given)
1.1 | 2 | C/C(=N\NC(=O)C1CC1c1ccccc1)c1cccs1 (stereo not given)
0.15 | -1.9 | O=C(OC1CCOC1=O)c1ccc(S(=O)(=O)N2CCCCCC2)cc1 (stereo not given)
1.7 | -0.7 | Cc1nc2cc(N)ccc2n1-c1ccccc1
0.8 | 0.32 | CCN(CC)CCn1c2c(c(SCC(=O)Nc3ccc4c(c3)OCCO4)nc1=O)CCCC2
